Assay outcomes (PubChem)
Lassa entry inh: qHTS for Inhibitors of binding or entry into cells for Lassa Virus | Lassa virus pseudotype entry inhibition, cell reporter; control for the full effect not named in the record | hit rate 1.2% among 300,000 | AID 540256, 2011 | Potency, µM (top dose mostly 37.9 µM), for inactives: top-dose activity change, negative = inhibition, usual class: inhibitors; active means well fitted inhibition curve with a large enough effect; inconclusive means small, poorly fitted or top-dose-only effect, or effect the other way; inactive means flat fitted curve, though single readings scatter; tested in HEK293 cells; note: % is set by controls: 0 for no effect and ±100 for the full control effect; nearly all actives have a fitted effect of over 50% in size; luciferase read-out
Cruzain noTriton: qHTS Assay for Promiscuous and Specific Inhibitors of Cruzain (without detergent). hit rate 2.3% among 200,000. AID 1476, 2009. Cruzipain (Trypanosoma cruzi), P25779. Potency, µM, for the others: max response, negative = inhibition, most hits filed as inhibitors. purified cruzain, Z-FR-AMC fluorescence, no detergent; active = well fitted curve in the direction sought with a large enough effect; inconclusive = small, poorly fitted or top-dose-only effect, or another doubt; inactive = no such curve, though single readings can be large; an effect the other way counts as inactive or inconclusive;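 note: plate controls were enzyme without inhibitor for no effect and buffer without enzyme for full effect; nearly all actives have a fitted effect of over 40% in size; top concentration of the series not given in the record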
Target sequence (P25779 123-467 limits assumed): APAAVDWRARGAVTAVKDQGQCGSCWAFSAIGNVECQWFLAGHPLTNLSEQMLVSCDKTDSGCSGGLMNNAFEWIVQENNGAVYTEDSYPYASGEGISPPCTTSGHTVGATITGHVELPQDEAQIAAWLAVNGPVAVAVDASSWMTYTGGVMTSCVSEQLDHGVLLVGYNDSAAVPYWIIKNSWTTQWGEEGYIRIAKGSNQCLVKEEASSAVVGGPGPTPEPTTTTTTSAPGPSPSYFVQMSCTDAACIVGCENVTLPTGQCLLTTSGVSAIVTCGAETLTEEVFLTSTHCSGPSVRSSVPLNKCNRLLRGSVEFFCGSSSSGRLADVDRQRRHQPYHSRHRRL
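Purified cruzain at 1.5 nM, pre-incubated 15 min with compound at room temperature in 100 mM sodium acetate pH 5.5, 5 mM DTT, 0.00005% Triton X-100. Reaction started with 2 uM Z-FR-AMC; AMC fluorescence increase over 60 s gives rate.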
SARS PLP yeast: qHTS of Yeast-based Assay for SARS-CoV PLP; S. cerevisiae expressing SARS-CoV PLpro, growth rescue; control for the full effect not named in the record; Potency, µM (highest dose often 32.9 µM), inactives show top-dose activity, positive = growth rescue; hit rate 0.19% among 330,000; AID 485353, 2010; note: 0% is about no effect; nearly all actives have a fitted effect of over 55% in size; growth read by luminescence after 48 h
2A StopGo: High Throughput Screening for Foot and Mouth Disease Virus Antivirals; hit rate 1.2% among 410,000; Potency, µM (doses to about 57.9 µM), inactives show top-dose signal change, negative = less light; AID 1159524, 2015; human cells with a luciferase reporter of 2A StopGo recoding; control for the full effect not named in the record; active = well fitted falling curve with a large enough effect; inconclusive = small, poorly fitted or top-dose-only effect; inactive = no such curve, though single readings can be large or run the other way; tested in HEK293T cells; note: % is set by controls: 0 for no effect and ±100 for the full control effect; nearly all actives have a fitted effect of over 45% in size; luciferase light after 4 h
Cruzain inh Det: qHTS Assay for Promiscuous and Specific Inhibitors of Cruzain (with detergent). purified cruzain, Z-FR-AMC fluorescence, 0.01% Triton. Potency, µM, without a hit: max response, negative = inhibition, hits mostly inhibitors. hit rate 0.43% among 200,000; active = well fitted curve in the direction sought with a large enough effect; inconclusive = small, poorly fitted or top-dose-only effect, or another doubt; inactive = no such curve, though single readings can be large; an effect the other way counts as inactive or inconclusive;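 note: plate controls were neutral wells for no effect and buffer without enzyme for full effect; nearly all actives have a fitted effect of over 40% in size; top concentration of the series not given in the record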
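Detergent-containing arm of a paired screen for aggregation-based inhibition: 0.01% Triton X-100 present. Cruzain at 1.5 nM cleaved 2 uM Z-FR-AMC at pH 5.5 with 5 mM DTT; AMC fluorescence gain over 60 s measured activity.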
NS1 inh: qHTS Assay for Inhibitors of Influenza NS1 Protein Function | S. cerevisiae slowed by influenza A NS1, growth recovery by OD600 | Potency, µM (series often up to 46.1 µM), without a hit: at the highest dose activity, positive = more growth | hit rate 0.4% among 270,000; note: actives are rising curves; nearly all actives have a fitted effect of over 50% in size
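A cell-based growth assay was used: compounds that relieve NS1-induced slow growth of budding yeast raise OD600. Assay medium was yeast nitrogen base with ammonium sulphate and -URA supplement, pH 6.0, with 2% galactose.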
RE007 growth inh: qHTS Assay for Inhibitors of the HIV-1 protein Vpr. hit rate 0.21% among 360,000. S. pombe RE007 Vpr strain, BacTiter-Glo ATP luminescence, 24 h; control for the full effect not named in the record. Potency, µM (series often up to 92.2 µM), inactives show at the highest dose activity change, negative = less growth; active = well fitted falling curve with a large enough effect; inconclusive = small, poorly fitted or top-dose-only effect; inactive = no such curve, though single readings can be large or run the other way;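 note: % is set by controls: 0 for no effect and ±100 for the full control effect; nearly all actives have a fitted effect of over 50% in size; the assay follows cell death caused by Vpr and the record does not say whether a fall means rescue or toxicity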
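Fission yeast strain RE007, carrying one chromosomally integrated HIV-1 vpr copy, was seeded at OD 0.01 in PMG+AL medium with 23 nL pinned compound. After 24 h at 30 °C and 99% humidity, viability was read by BacTiter-Glo luminescence.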
Marburg entry inh: qHTS for inhibitors of binding or entry into cells for Marburg Virus; Marburg virus pseudotyped entry inhibition, cell reporter; control for the full effect not named in the record; about a third of the inactives were read at about 46 µM; Potency, µM (doses to about 37.8 µM), without a hit: at the top dose activity change, negative = inhibition, hits mostly inhibitors; hit rate 1.8% among 300,000; active = well fitted inhibition curve with a large enough effect; inconclusive = small, poorly fitted or top-dose-only effect, or effect the other way; inactive = flat fitted curve, though single readings scatter; tested in HEK293 cells; about a fifth of its hits are not listed in these tables; note: % is set by controls: 0 for no effect and ±100 for the full control effect; luciferase read-out
An asterisk follows results filed as active; u = inconclusive; x = no result given; [ ] = remark or other dose. Unless noted, calls come from the whole dose curve; as a rule, active means well fitted rising curve with a large enough effect; inconclusive means small, poorly fitted or top-dose-only effect; inactive means no such curve, though single readings can be large or run the other way. Potency is the fitted concentration of half-maximal effect.

1. O=C(O)c1ccc(S(=O)(=O)c2ccc3c(c2)C(=O)N(c2ccccc2[N+](=O)[O-])C3=O)cc1
2. COc1ccc(C(=O)Nc2cccc(C(=O)NCc3ccccc3)c2)cc1
3. O=C(c1ccc(=O)n(Cc2ccc(Cl)c(Cl)c2)c1)N1CCOCC1
4. Cc1cc(=O)n2[nH]c(-c3ccccc3)cc2n1
5. Cc1cc(NS(=O)(=O)Cc2ccccc2)no1
6. CC1(C)Cc2ccccc2C(NNC(=O)c2ccccc2)=N1
7. O=C(CSc1ncccc1C(=O)O)NCc1ccc(F)cc1
8. O=C(Nc1ccc(N2CCOCC2)cc1)C1CCN(S(=O)(=O)Cc2ccccc2)CC1

| compound no. | 1 | 2 | 3 | 4 | 5 | 6 | 7 | 8 |
| --- | --- | --- | --- | --- | --- | --- | --- | --- |
| 2A StopGo | -3.5% | 36.9%[activator] | -9.3% | 0.0% | 13.6% | 3.4% | -1.1% | 0.9% |
| RE007 growth inh | -11.2% | 2.3% | 8.8% | 6.5% | 21.4% | -20.2% | 3.0% | 15.7% |
| Cruzain inh Det | x | x | 0.2% | -2.3% | -0.7% | x | 5.0% | -2.3% |
| SARS PLP yeast | -3.5% | -0.8% | 4.8% | x | -8.7% | 5.9% | 9.5% | -0.1% |
| Cruzain noTriton | x | x | 2.1% | -0.8% | -4.1% | x | 5.4% | -24.9% |
| Lassa entry inh | 22.9% | x | 21.6% | 17.4% | 0.0% | 7.3% | 6.2% | 8.2% |
| Marburg entry inh | 19.2% | x | 3.6% | 3.9%[46.1 µM] | -3.2% | u | -5.6% | 27.2% |
| NS1 inh | 13.2% | -3.9% | 15.8% | -8.3% | 17.0% | x | 6.3% | 3.8% |

9. CCCn1c2ccccc2c2cnn(CC(=O)NCCCN3C(C)CCCC3C)c(=O)c21 (stereo not given)
10. O=c1sc2ccccc2n1CCCOc1ccccc1
11. Cc1cccc(C)c1NC(=O)COC(=O)COc1ccc2c(C)cc(=O)oc2c1
12. Cn1ccnc1C(O)c1ccc(OCc2ccccc2)cc1 (stereo not given)
13. CCn1c(C)cc(C(=O)COC(=O)c2cccnc2SC)c1C
14. CSCc1nnc(NC(=O)c2ccc(S(=O)(=O)N3CCCCC3C)cc2)o1 (stereo not given)
15. O=C(O)CCS(=O)(=O)c1cc(Br)cc2c1N(C(=O)C1CC1)CC2
16. Cn1c2c(c3ccccc31)CC/C2=N\O

| compound no. | 9 | 10 | 11 | 12 | 13 | 14 | 15 | 16 |
| --- | --- | --- | --- | --- | --- | --- | --- | --- |
| 2A StopGo | -18.3% | 55.8%[activator] | -13.6% | 52.1%[activator] | -6.1% | -8.7% | 9.6% | 43.8%[activator] |
| RE007 growth inh | -0.4% | -11.1% | 4.1% | 2.2% | -3.2% | -11.5% | 1.0% | -23.6% |
| Cruzain inh Det | x | -2.8% | -3.2% | 4.8% | x | x | x | -6.8% |
| SARS PLP yeast | -6.2% | -4.6% | -3.2% | 2.6% | -1.5% | -4.9% | -0.5% | 24.9% |
| Cruzain noTriton | x | 4.2% | -4.6% | 1.8% | x | x | x | -0.6% |
| Lassa entry inh | x | 25.6% | u | 26.8% | u | u | 5.3% | -2.7% |
| Marburg entry inh | x | 5.5%[46.1 µM] | 28.2% | 14.9% | -11.8% | u | u | u |
| NS1 inh | -0.8% | -31.1% | 2.1% | -67.5% | x | -18.6% | x | -40.6% |

17. CCCCn1nnnc1SCC(=O)Nc1cccc(C)n1
18. CCN(CC)CCCNC(=O)c1csc(Nc2cccc3ccccc23)n1
19. COc1ccc(Cl)cc1CN1C(=O)NC2(CCCCCC2)C1=O
20. CCNC(=S)N(Cc1cc2cc(C)ccc2[nH]c1=O)C1CCCC1
21. Cc1cc(C)cc(NC(=O)c2c(C)nc3ccccn23)c1
22. COC(=O)c1sc2nc(N)c(C#N)cc2c1N
23. COc1cc2c(cc1O)C[C@H]1NCCc3cc4c(c-2c31)OCO4
24. CCCc1cc(C(=O)Nc2cccc(C(C)=O)c2)no1

| compound no. | 17 | 18 | 19 | 20 | 21 | 22 | 23 | 24 |
| --- | --- | --- | --- | --- | --- | --- | --- | --- |
| 2A StopGo | -10.2% | -5.0% | -6.2% | -5.2% | 19.3% | 19.7% | 0.0% | 121.4%[activator] |
| RE007 growth inh | 10.6% | -9.1% | 1.8% | 10.7% | -7.1% | -4.7% | -24.7% | -0.2% |
| Cruzain inh Det | 3.6% | x | x | -2.6% | x | -4.5% | -1.4% | -0.7% |
| SARS PLP yeast | -1.6% | 2.1% | -0.5% | u | -0.4% | 16.9% | -8.5% | -18.5% |
| Cruzain noTriton | 0.3% | x | x | 3.0% | x | -12.4% | -8.6% | -2.2% |
| Lassa entry inh | 1.9% | x | 21.8%[46.1 µM] | 3.2% | 1.7%[46.1 µM] | u | u | x |
| Marburg entry inh | -1.5%[46.1 µM] | x | -9.2%[46.1 µM] | u | u | -0.9% | u | x |
| NS1 inh | 2.3% | -8.8% | -23.6% | 16.0% | -1.3% | 27.4% | u | -0.5% |

25. COc1cc(NC(=O)C2=C(C)OCCS2)c(Cl)cc1C(=O)NCCN1CCN(C)CC1
26. Cc1ccc2c(CSc3nnc4ccccn34)cc(=O)oc2c1C
27. CC(C)Cn1cc(NC(=O)NCc2ccccc2Cl)c2ccccc2c1=O
28. CSc1nc2ccccc2n1CC(=O)Nc1cc(C(F)(F)F)ccc1N1CCOCC1
29. CC(C)(C)Nc1c(-c2ccc(O)cc2)nc2ccc(Cl)cn12
30. CCOC(=O)Cn1c(CCC(=O)O)ccc1-c1ccc(F)cc1
31. Cc1cc(C(=O)c2cnc(/N=C/N(C)C)s2)cc(C)c1O

| compound no. | 25 | 26 | 27 | 28 | 29 | 30 | 31 |
| --- | --- | --- | --- | --- | --- | --- | --- |
| 2A StopGo | -13.0% | 16.6% | -19.5% | -4.8% | -16.8% | -23.5% | 2.9% |
| RE007 growth inh | -2.4% | 3.5% | x | 1.6% | -10.4% | -6.1% | 4.2% |
| Cruzain inh Det | x | -4.3% | -9.9% | -6.2% | x | -5.4% | 0.0% |
| SARS PLP yeast | 2.5% | 3.55µM* | x | -2.2% | 0.6% | 1.2% | 0.4% |
| Cruzain noTriton | x | -6.4% | -28.0% | u | x | -13.8% | -4.4% |
| Lassa entry inh | x | 0.3% | u | -12.0% | -8.6%[46.1 µM] | x | 0.1% |
| Marburg entry inh | x | 9.6% | x | u | -4.2%[46.1 µM] | x | -10.0% |
| NS1 inh | -4.3% | 16.1% | x | -10.3% | -1.4% | -2.1% | 21.2% |

Grouped by structure, the entries above with four or more nitrogen atoms
9. CCCn1c2ccccc2c2cnn(CC(=O)NCCCN3C(C)CCCC3C)c(=O)c21 (stereo not given)
14. CSCc1nnc(NC(=O)c2ccc(S(=O)(=O)N3CCCCC3C)cc2)o1 (stereo not given)
17. CCCCn1nnnc1SCC(=O)Nc1cccc(C)n1
18. CCN(CC)CCCNC(=O)c1csc(Nc2cccc3ccccc23)n1
22. COC(=O)c1sc2nc(N)c(C#N)cc2c1N
25. COc1cc(NC(=O)C2=C(C)OCCS2)c(Cl)cc1C(=O)NCCN1CCN(C)CC1
28. CSc1nc2ccccc2n1CC(=O)Nc1cc(C(F)(F)F)ccc1N1CCOCC1

| compound no. | 9 | 14 | 17 | 18 | 22 | 25 | 28 |
| --- | --- | --- | --- | --- | --- | --- | --- |
| 2A StopGo | -18.3% | -8.7% | -10.2% | -5.0% | 19.7% | -13.0% | -4.8% |
| RE007 growth inh | -0.4% | -11.5% | 10.6% | -9.1% | -4.7% | -2.4% | 1.6% |
| Cruzain inh Det | x | x | 3.6% | x | -4.5% | x | -6.2% |
| SARS PLP yeast | -6.2% | -4.9% | -1.6% | 2.1% | 16.9% | 2.5% | -2.2% |
| Cruzain noTriton | x | x | 0.3% | x | -12.4% | x | u |
| Lassa entry inh | x | u | 1.9% | x | u | x | -12.0% |
| Marburg entry inh | x | u | -1.5%[46.1 µM] | x | -0.9% | x | u |
| NS1 inh | -0.8% | -18.6% | 2.3% | -8.8% | 27.4% | -4.3% | -10.3% |
